Screening data (PubChem)
LT uptake inh = blocks cellular internalization of anthrax lethal toxin | Potency, µM (series often up to 40 µM), without a hit: at the top dose activity change, negative = inhibition, most hits filed as inhibitors | AID 912 | Cells, anthrax lethal toxin internalization, FRET ratio (460/530) | actives 0.67% (n = 70,000); active = well fitted falling ratio curve with the 530 nm signal flat; inconclusive = other ratio curves, or a change in one channel alone; inactive = flat curves in the ratio and both channels; the % refers to the ratio; further: on the % scale 0 is the no-effect control and ±100 the full control effect; nearly all actives have a fitted effect of over 50% in size; tested in ME-180 cells; beta-lactamase reporter
Prx2 Sm inh = Schistosoma mansoni Prx2 inhibition; S. mansoni Prx2 activity coupled to TGR/GSH (TGR is thioredoxin glutathione reductase), NADPH fluorescence loss, qHTS; some inactives read as strong as hits; Potency, µM; actives 0.07% (n = 65,000); AID 448; active means full or partial inhibition curve with a strong effect at the top dose; inconclusive means weaker partial or single-point curve; inactive means no accepted curve; further: series up to 57 µM; many of its hits are not listed in these tables
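Prx2 inhibition was measured as reduced NADPH consumption when electrons flowed from NADPH through TGR and glutathione to Prx2 and H2O2. Plates were read kinetically over 8 min; enzyme reagents were held at 4 deg C during dispensing.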
* hit, by the source's call; u = inconclusive; x = no result given; & = joins results of further samples; [ ] = another dose, or the depositor's remark. Potency means the concentration at half of the fitted maximal effect. Only part of the results is shown; count on the stated rates, not on these rows.

SMILES	LT uptake inh	Prx2 Sm inh
COc1ccc(N(C2CSC2)S(=O)(=O)c2ccccc2)cc1	-19%	>57
COCCCNC(=O)CS(=O)(=O)Cc1nc(-c2ccccc2C)oc1C	-2%	>57
CCOC(=O)C1CCCN(C(=O)c2cn(CC)c3ccc(S(=O)(=O)N4CCCC4)cc3c2=O)C1 (configuration not stated)	2%	>57
Cn1cccc1Cc1nnc(SCC(=O)Nc2ccc(F)cc2)n1-c1ccc(F)cc1	-24%	>57
Cn1c(=O)n(CC(N)=O)c2ccccc21	-5%	>57
COc1ccc(Nc2nc(C)c3ccccc3n2)cc1	-4%	>57
Cc1ccc(OC(C)C(=O)N2CCc3ccccc32)cc1 (configuration not stated)	4%	>57
O=C(O)[C@@H](c1ccccc1)N1Cc2ccccc2C1=O	7%	>57
CC1(C)C(=O)C(c2ccccc2)=C2CN3C(=O)N(CCc4ccccc4)C(=O)C3(Cc3ccc(F)cc3)C=C21 (configuration not stated)	u	>57
S=c1sc2c(N3CCOCC3)ncnc2n1-c1ccccc1	-6%	>57
COC(=O)Cn1c2ccc(OC)cc2c2nc3ccccc3nc21	11%	>57
C=CCOC(=O)C1=C(C)NC(=O)NC1c1cn(-c2ccccc2)nc1-c1cccs1 (configuration not stated)	-4%	>57

Brought forward from above: 3 compounds; new compounds follow.
SMILES	LT uptake inh	Prx2 Sm inh
S=c1sc2c(N3CCOCC3)ncnc2n1-c1ccccc1	-6%	>57
COC(=O)Cn1c2ccc(OC)cc2c2nc3ccccc3nc21	11%	>57
C=CCOC(=O)C1=C(C)NC(=O)NC1c1cn(-c2ccccc2)nc1-c1cccs1 (configuration not stated)	-4%	>57
CCN1CCCC1CNC(=O)C1CCN(Cc2nc(-c3cccc(Br)c3)oc2C)CC1 (configuration not stated)	6.3µM*	>57
O=C(Nc1ccc2c(c1)OCO2)C1CCN(S(=O)(=O)c2ccc3c(c2)OCCO3)CC1	-14%	>57
CN=c1scc(C)n1/N=C/c1ccc(O)cc1O	-7%	>57
CCCCOC(=O)C1=C(C)Nc2ncnn2C1c1cc(OC)ccc1OC (configuration not stated)	-8%	>57
COC(=O)c1ccc(CSc2nc(C(F)(F)F)c3c(c2C#N)CCC3)o1	-18%	>57
CN(CCCNC(=O)c1cn(C)c2ccc(S(=O)(=O)N(C)C)cc2c1=O)c1ccccc1	-13%	>57
COc1ccc(C2=NOC(C(=O)N3CCCCCC3)C2)cc1OC (configuration not stated)	9%	>57
CC(=O)c1cccc(NC(=O)C2CCCC2)c1	0%	x
CCc1ccccc1S(=O)(=O)Cc1ccc(C(=O)NCc2ccc3c(c2)OCO3)o1	u	>57
COc1ccc(N2CCN(C(CNC(=O)Oc3ccccc3)c3cccnc3)CC2)cc1 (configuration not stated)	13%	>57
O=C(CN(Cc1ccc(F)cc1)C(=O)Cn1nnc2ccccc21)NCC1CCCO1 (configuration not stated)	5%	>57
COc1ccc(S(=O)(=O)N2CCCC(C(=O)NC3CCCCC3)C2)cc1 (configuration not stated)	3%	>57
COc1ccc(C(C)(C)C)cc1NC(=O)Nc1ccc2c(c1)OCO2	10µM*	>57
O=C(Nc1ccccc1NC(=O)NC1CCCCC1)NC1CCCCC1	u	>57
CCOC(=O)c1c(CN2CCCCC2)n(C)c2cc(Br)c(O)c(CN(C)C)c12	-17%	>57
Cc1ccc(-c2c3c([nH]c(=S)c2C#N)CCCC3)o1	-11%	>57
CC(C)N(CCC(=O)c1ccc2ccccc2c1)Cc1ccccc1	u	>57&>57
CC1=CC(C)(C)N(C(=O)CSc2nccn2C)c2cc(C)ccc21	u	x
O=C(Cn1c(=O)n(-c2ccc(F)cc2)c(=O)c2sccc21)N1CCCC1	8%	>57
CCCCCn1c(=O)c(C(=O)NCc2ccncc2)c(O)c2ccccc21	u	>57
CCn1c(SCC(=O)c2ccc3c(c2)OCCO3)nnc1-c1ccco1	11%	>57
c1ccc(-c2oc3ncnc(NCCCn4ccnc4)c3c2-c2ccccc2)cc1	u	>57
CCN(CC)P(=O)(/C(Cl)=C\Nc1c(C)n(C)n(-c2ccccc2)c1=O)N(CC)CC	x	>57
N=C1CCC[C@@H]1C(=S)SCCC(N)=O	-3%[8 µM]	>57
Cc1cc2cc(CN(Cc3nnnn3C3CCCCC3)CC3CCCO3)c(=O)[nH]c2cc1C (configuration not stated)	-7%	>57
Nc1nnc(-c2ccccc2Cl)s1	1%	>57
CC(=O)Nc1cccc(NC(=O)CSc2ncc(-c3ccc(Cl)cc3)n2Cc2ccco2)c1	13µM*	>57
O=c1/c(=C\c2ccc3c(c2)OCO3)sc2n1CCCN=2	10%	>57
N#CCCn1c(=O)c(CCc2ccccc2)nc2cnc(Nc3ccccc3)nc21	u	>57
COc1ccc(-c2nnc(SCC(=O)Nc3sc4c(c3C#N)CCC4)n2CC2CCCO2)cc1 (configuration not stated)	u	>57
COc1cc(C2C(C#N)=C(N)Oc3cc(C)n(CC4CCCO4)c(=O)c32)cc2c1OCO2 (configuration not stated)	x	>57
O=C(O)[C@H]1C[C@H](C(=O)O)N1	u	>57&>57
Cn1cccc1C(=O)OCC(=O)c1cc2ccccc2o1	-4%	>57
Cc1cccc(CNc2cc(-c3ccc(C(=O)N(C)C)cc3)ncn2)c1	u	>57
O=C(CC1Oc2ccccc2NC1=O)NCCc1ccccc1 (configuration not stated)	-3%	>57
Cc1cc(C(=O)N2CCCCCC2)cs1	6%	>57

Next section (four carried over from the part before).
SMILES	LT uptake inh	Prx2 Sm inh
Cn1cccc1C(=O)OCC(=O)c1cc2ccccc2o1	-4%	>57
Cc1cccc(CNc2cc(-c3ccc(C(=O)N(C)C)cc3)ncn2)c1	u	>57
O=C(CC1Oc2ccccc2NC1=O)NCCc1ccccc1 (configuration not stated)	-3%	>57
Cc1cc(C(=O)N2CCCCCC2)cs1	6%	>57
O=C(c1cccs1)N1CCN(C/C=C/c2ccccc2)CC1	-26%	>57
Fc1ccccc1OCCSc1nnnn1-c1ccccc1	-24%	>57
O=C(CCC1N=C2c3ccccc3N=C(SCc3ccccc3Cl)N2C1=O)NCc1ccco1 (configuration not stated)	-27%	>57
COc1ccccc1CNc1ncnc2ccc(-c3ccccc3OC)cc12	u	>57
CCC(=O)Nc1nonc1-c1nc2ccccc2n1Cc1ccccc1	-24%	>57
COc1ccccc1-c1cn(S(=O)(=O)c2ccc(C)cc2)nc1N	x	>57
CCOC(=O)N1CCN(C(=O)c2cc3c(=O)[nH]c4ccccc4c3s2)CC1	-11%	>57
CCCCCCN=C(CC)c1c(O)n(CCCC)c(=O)[nH]c1=O	u	x
CN1CCN(/C=N/c2c(C#N)cnn2C)CC1	-7%	>57
CC(C)=NO[C@@H](C)CN1CCCCc2nc(C)c(C)cc21	-2%[8 µM]	x
CCCN(CCC)c1c([N+](=O)[O-])cc(C(F)(F)F)cc1[N+](=O)[O-]	5µM*	x
CC(=O)c1cc2c(cc1NC(=O)CSc1nc3ccccc3o1)OCO2	6%	>57
C=CCN1C(=O)C(O)(CC(=O)c2ccc(OC)cc2OC)c2cc(Br)ccc21 (configuration not stated)	-7%	>57
O=C1N(c2ccccc2)C2CS(=O)(=O)CC2N1c1ccc(Br)cc1 (configuration not stated)	u	>57
C=CCNc1nc2c3ccccc3n(C(C)=O)c2s1	-19%	>57
O=C(NC1CCCCCC1)C1c2ccccc2C(=O)N1Cc1cccnc1 (configuration not stated)	-14%	>57
COC(=O)[C@@]1(Cc2ccc(OC)cc2)[C@H]2c3cc(C(=O)N(C)C)n(Cc4ccc(OC)c(OC)c4)c3C[C@H]2CN1C(=O)c1ccccc1	-6%	>57
COc1ccc(C(=O)Nc2ccccc2C(=O)NC(C(=O)NCc2ccco2)C(C)C)cc1 (configuration not stated)	-6%	>57
Cc1cccc(S(=O)(=O)C(C#N)c2nc3ccccc3nc2N2CCCC2)c1 (configuration not stated)	u	x
COC(=O)c1[nH]c2ccccc2c1NC(=O)CCN1CCN(C2CCCCC2)CC1	-14%	>57
O=C(O)C1CC(=O)N(Cc2cccnc2)C1 (configuration not stated)	0%	>57
CCCOc1ccc(OC(=O)c2ccc(Br)o2)cc1	5%	>57
Cc1ccccc1-c1nc(CN2CCC(C(=O)NC3CCN(Cc4ccccc4)CC3)CC2)c(C)o1	u	>57
O=C(O)C1C2C=CC(C2)C1C(=O)NCCCN1CCOCC1 (configuration not stated)	-4%	>57
COCCCNC(=O)CCCC(=O)NCCCOC	u	>57
O=C(NCc1cn2ccccc2n1)c1ccc(Br)o1	16%	>57
O=C1CN(c2ccccc2F)C(=O)CN1c1ccccc1F	x	>57
N#CCCn1c(=O)c(-c2cccs2)nc2cnc(N3CCOCC3)nc21	u	>57
CCN1CCN(Cc2coc3ccc(C)cc3c2=O)CC1	-5%	x
O=S(=O)(c1cccc2nsnc12)N1CCc2ccccc2C1	-6%	>57
Cc1noc(C)c1S(=O)(=O)N1CCC(C(=O)N2CCN(Cc3ccc4c(c3)OCO4)CC2)CC1	2%	>57
O=C1CCCC2=C1C(Cc1ccccc1)C1=C(CCCC1=O)O2	-9%	>57
O=C(CCN1CCc2ccccc2C1)c1ccc2c(c1)OCCO2	u	>57
COC(=O)[C@H](Cc1ccccc1)NC(=O)NCCc1ccc(S(N)(=O)=O)cc1	2%	>57
COc1ccc(NC(=O)CN2CCN(c3ccccc3F)CC2)cc1	u	>57
COc1ccc(CCNC(=O)NC(C(F)(F)F)C(F)(F)F)cc1OC	6%	>57
CO[C@H]1/C=C/O[C@@]2(C)Oc3c(C)c(O)c4c(O)c(c(/C=N/N5CCN(C)CC5)c(O)c4c3C2=O)NC(=O)/C(C)=C\C=C\[C@H](C)[C@H](O)[C@@H](C)[C@@H](O)[C@@H](C)[C@H](OC(C)=O)[C@@H]1C	-3%	x
CCCCNC(=O)C1CCCN1C(=O)Nc1cccc(OC)c1 (configuration not stated)	4%	>57
CN1[C@@H]2CC[C@H]1CC(OC1c3ccccc3CCc3ccccc31)C2 (some centres not stated)	u	>57
CN(C)c1ccc2c(O)cc(=O)n(C)c2c1	-29%	>57
COc1ccc(S(=O)(=O)N2CCN(c3ccc4nnc(-c5ccc(F)cc5)n4n3)CC2)cc1	u	>57
CC(C)NC(=O)c1cc(C(=O)c2cc(Cl)ccc2O)coc1=N	-4%	>57
Cn1nc(CC(=O)N2CCN(c3ccccc3)CC2)c2ccccc2c1=O	-9%	>57
Cc1sc(NC(=O)CSc2nc(N)n(CC(=O)c3ccccc3)n2)c(C#N)c1C	-15%	>57
Cc1cc(NC(=O)CCC(=O)N(CC(=O)NC2CCCC2)Cc2ccccc2Cl)no1	-2%	>57
O=C(Nc1cccc(C(F)(F)F)c1)c1cc(S(=O)(=O)N2CCCCC2)ccc1N1CCOCC1	-10%	>57
C[C@@H](C(=O)OC1C[C@H]2CC[C@@H](C1)N2C)c1ccc(Br)cc1 (some centres not stated)	u	>57
CC1CN(c2nc3c(c(=O)n(Cc4ccc(Cl)cc4)c(=O)n3C)n2C)CC(C)O1 (configuration not stated)	u	>57
COC(=O)C1=C(C)Nc2nnnn2C1c1cc(OC)ccc1OC (configuration not stated)	-18%	x
Cc1ccc(C(=O)NCCCNCCCN(C)C)cn1	-1%	>57
CCOC(=O)C1CCN(S(=O)(=O)c2ccc(-n3cnnn3)c(C)c2)CC1	-2%	>57
O=C(Nc1ccc(F)cc1)C1CCCN(S(=O)(=O)c2cccc3cccnc23)C1 (configuration not stated)	-26%	>57
CC(C)CN1CC[C@@]2(CCCN(C(=O)c3cc(C(F)(F)F)cc(C(F)(F)F)c3)C2)C1	-1%	>57
Cc1nc2ccc(NC(=O)C3CCN(S(=O)(=O)c4cccs4)CC3)cc2s1	-14%	>57
CCn1c(COc2ccccc2C)nnc1SCC(=O)N1CCCCC1	3%	>57
CCCCCC(=O)N1CCN(CCN=CC2=C(O)CC(c3ccc(OC)c(OC)c3)CC2=O)CC1 (configuration not stated)	14%	>57
CC1=CC(C)(C)Nc2ccc(CSc3ccccc3)cc21	-11%[8 µM]	>57
Cc1nnc2n1-c1sc(CCC(=O)N3CCOCC3)cc1C(c1ccccc1Cl)=NC2	-3%	x
CCN(CC)S(=O)(=O)c1ccc(Nc2cc(C)nc3ncnn23)cc1	-4%	>57
Cn1c(Cc2csc(N)n2)nnc1SC/C=C/c1ccccc1	x	>57
CN1CCN(C(=O)C2(NC(=O)Nc3cccc(F)c3)CCCCC2)CC1	-22%	>57
CCNc1ncc2nc(C)c(=O)n(CCc3ccccc3)c2n1	-10%	>57
COc1cccc(C(=O)NCC2CCN(c3ccc(S(=O)(=O)N4CCOCC4)cc3)CC2)c1	7%	>57

Look-ups from the entries so far.
Prx2 Sm inh, Cn1c(Cc2csc(N)n2)nnc1SC/C=C/c1ccccc1 : >57
LT uptake inh, CC1=CC(C)(C)Nc2ccc(CSc3ccccc3)cc21 : -11%[8 µM]
Prx2 Sm inh, CCOC(=O)C1CCN(S(=O)(=O)c2ccc(-n3cnnn3)c(C)c2)CC1 : >57
LT uptake inh, CC(C)CN1CC[C@@]2(CCCN(C(=O)c3cc(C(F)(F)F)cc(C(F)(F)F)c3)C2)C1 : -1%
LT uptake inh, Cc1nnc2n1-c1sc(CCC(=O)N3CCOCC3)cc1C(c1ccccc1Cl)=NC2 : -3%
LT uptake inh, CCN(CC)S(=O)(=O)c1ccc(Nc2cc(C)nc3ncnn23)cc1 : -4%
Prx2 Sm inh, CCCCCC(=O)N1CCN(CCN=CC2=C(O)CC(c3ccc(OC)c(OC)c3)CC2=O)CC1 (configuration not stated) : >57
